HPGD block – HPGD (human) dehydrogenase inhibition; P15428; purified HPGD, NADH fluorescence kinetic, PGE2 substrate; Potency, µM, inactives show at the top dose activity change, negative = inhibition, usual class: inhibitors; actives 4.3% (n = 150,000); active = well fitted inhibition curve with a large enough effect (not every such curve was filed as active); inconclusive = small, poorly fitted or top-dose-only effect, or another doubt; inactive = no such curve, though single readings can be large or run the other way;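 further: top concentration of the series not given in the record; plate controls included wells without enzyme; inactives centre near -10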
Target sequence (P15428 whole entry, looked up): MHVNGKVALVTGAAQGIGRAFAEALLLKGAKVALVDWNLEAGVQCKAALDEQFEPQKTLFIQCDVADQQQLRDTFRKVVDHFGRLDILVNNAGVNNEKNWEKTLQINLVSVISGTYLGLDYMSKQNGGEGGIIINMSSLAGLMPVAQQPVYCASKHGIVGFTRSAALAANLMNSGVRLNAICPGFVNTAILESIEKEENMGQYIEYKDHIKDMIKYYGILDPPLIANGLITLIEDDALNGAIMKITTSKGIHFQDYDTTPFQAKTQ
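20 nM HPGD preincubated 15 min at room temperature with compound in 50 mM Tris-HCl pH 8, 0.01% Tween 20. Started with 1 mM NAD+ and 30 uM prostaglandin E2; NADH fluorescence (360/450 nm) read 5 times over 30-s intervals, last minus first.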
Starred values were filed as active, the others as inactive; ? = inconclusive; & = joins results of further samples. On the % scale 0 is the no-effect control and ±100 the full control effect; potency means the concentration at half of the fitted maximal effect. Some of the compounds tested (hit frequency here may not be typical).

SMILES	HPGD block
COc1ccc2c(c1OC)C(=O)OC2Nc1ccccn1 (stereo unspecified)	-15%
O=C(NCC1CCCO1)c1onc(CSc2cccc(Cl)c2)c1C(=O)O (stereo unspecified)	-16%
Cc1cccc2sc(N(CCCN(C)C)C(=O)c3cc4ccccc4oc3=O)nc12	-3%
CCOc1ccccc1Nc1nc(-c2sc(NC(=O)c3ccco3)nc2C)cs1	-22%
Cc1cccc(C(=O)Nc2nc(C)c(C(=O)Nc3ccc4c(c3)CCC4)s2)c1	-28%
CC(C)=C1C2C=CC1C(C(=O)Nc1cccc(C)c1)C2C(=O)O (stereo unspecified)	-4%
CC(C)C(c1nnnn1Cc1ccccc1)N1CCN(Cc2ccco2)CC1 (stereo unspecified)	-3%
Cc1ccccc1-c1nc(CN2CCC(C(=O)O)CC2)c(C)o1	0%
O=S(=O)(c1ccc2nc(COc3ccc(Cl)cc3Cl)[nH]c2c1)N1CCOCC1	-20%
O=C(/C=C/Sc1ccccc1)c1ccccc1	?
CCOC(=O)c1nn(-c2cccc(OC)c2)c(-c2ccccc2)c1C(=O)c1ccccc1	-4%
C#CCCOC(=O)N1C2=NC(C(=O)OC)=C(C(=O)OC)[C@@H]3N(CC=C)c4ccccc4[C@]23C[C@H]1C(=O)OC	-1%
COc1cccc2cc(C(=O)CC3(O)C(=O)N(Cc4ccccc4)c4ccccc43)c(=O)oc12 (stereo unspecified)	-1%
O=c1c(-c2ccccc2)c(O)nc(SCCN2CCOCC2)n1-c1ccccc1	-1%
O=[N+]([O-])c1cccnc1N1CCC(c2cc(-c3ccc(Cl)cc3Cl)n[nH]2)CC1	-15%
N#Cc1c2n(c(=O)[nH]c1=O)CCCCC2	-2%
O=S(=O)(c1cccc(C(F)(F)F)c1)N1CCN(c2nnnn2-c2ccccc2)CC1	-11%
O=C(Nc1cccc(Cl)c1Cl)C1CC(=O)N(c2ccc(Br)cc2)C1 (stereo unspecified)	-14%
O=C(CNS(=O)(=O)c1ccccc1)N1CCN(c2ccccc2)CC1	-12%
Cc1nc2ccc(S(=O)(=O)NCC(=O)N3CCc4ccccc43)cc2s1	0%
CCOC(=O)c1c(C)c(C(=O)NC2CCCCC2)c(C)n1CC	-10%
COCCn1c(=S)[nH]c2ccc(N(C)C)cc2c1=O	-30%
COC(=O)c1sc(-c2ccccc2)cc1NC(=O)c1ccc(F)cc1	-11%
COc1ccc(-c2c(C)sc(NC(=O)c3ccnn3C)c2C#N)cc1	?
Cc1cc(C)n2nc(SC(C)C(=O)NCc3ccco3)nc2n1 (stereo unspecified)	-10%
C=CCOc1ccc(C(=O)NC2CCCCC2)cc1	-22%
O=C(NCc1n[nH]c(=S)n1-c1ccccc1)c1ccco1	-6%
Cc1ncsc1C(=O)N1N=C2/C(=C/c3ccccc3)CCCC2C1c1ccccc1 (stereo unspecified)	?
COc1ccc2cc3cc(C(=O)NCc4ccco4)oc3nc2c1	?
O=C1NC(=O)C2(COC(c3ccccc3Cl)OC2)S1 (stereo unspecified)	-10%
C/C(N)=C(/C#N)C(=O)CSc1nc2ccccc2c(=O)n1-c1ccc(C)cc1	-20%
CCCCCn1c(SCc2ccncc2)nc2cc(C(=O)NCc3ccco3)ccc2c1=O	-21%
CC1=C(C(=O)OCc2ccccc2)C(c2ccc([N+](=O)[O-])cc2)NC(=O)N1CCCCCC(=O)O (stereo unspecified)	0%&-8%
CN(C/C(O)=C(\C#N)c1ccccc1)C1CCCCC1	-10%
O=C(/C=C/c1ccc([N+](=O)[O-])cc1)c1cccnc1	-20%
C=CCn1c(SCC(=O)c2ccccc2)nnc1-c1ccc2c(c1)OCO2	5.6µM*
O=C1CCCc2c1cc(C(=O)NC1CCSC1=O)c(=O)n2-c1ccccc1 (stereo unspecified)	?
CC(=O)Nc1cc(-c2ccccc2)ccc1O	-11%
O=C(CN1CCN(S(=O)(=O)/C=C/c2ccccc2)CC1)NC(=O)NCc1ccco1	1%
O=C(NNc1ccc(C2CCCCC2)cc1)C(O)(c1ccccc1)c1cccs1 (stereo unspecified)	-15%
Cc1ccccc1CNc1ncnc2c1ncn2C1OC(CO)C(O)C1O (stereo unspecified)	-9%
COc1cccc2cc(C(=O)NCC3CCCO3)c(=O)oc12 (stereo unspecified)	-25%
CCOC(=O)CC1C(=O)NCCN1C(=O)c1cccc(C(F)(F)F)c1 (stereo unspecified)	-6%
Cc1cnc(NC(=O)c2ccc3c(c2)C(=O)N(Cc2ccco2)C3=O)s1	-8%
COc1ccc(-c2cc(C(F)(F)F)nc(NC3CCCC3)n2)cc1OC	?
CC(C)(C)C(=O)Nc1cccc(-c2nnc(-c3cccc(NC(=O)C(C)(C)C)c3)o2)c1	-2%
COc1ccc(N(CC(=O)N2CCc3ccccc32)S(=O)(=O)c2c(C)noc2C)cc1	-10%
Cn1nc(C(=O)N2CCCC2)c2ccccc2c1=O	5%
CCn1c(COc2ccccc2C)nnc1SCC(=O)Nc1cc(C)on1	-7%
CC(=O)N(Cc1ccco1)c1nc(C(=O)Nc2ccc(Cl)cc2)c(C)s1	?
CC(=C/C(=O)O)/C=C/c1cccs1	0%
C[C@@H](C(=O)Nc1ccccc1N1CCOCC1)N1C(=O)C2CC=CCC2C1=O (stereo partly specified)	2%
Cc1ccc(/C=N/NC(=O)CNC(=O)COc2ccccc2)o1	-5%
CC(=O)c1cc(NC(=O)c2ccc(Cl)cc2)c(=O)oc1/C=C/N(C)C	?
Cc1cccc(N(C(=O)Cn2nnc3ccccc32)C(C(=O)NCc2ccco2)c2ccncc2)c1 (stereo unspecified)	-7%
O=C(O)c1cccc(S(=O)(=O)N2CCCC2)c1	-18%
CCOc1ccc2c(c1)C(C)=CC(C)(C)N2	?
OCC1O[C@H](O)C(Cl)C(O)C1O (stereo partly specified)	-17%
CCOC(=O)CCCCC(=O)c1[nH]c(=O)[nH]c1CSc1nc(C)cc(=O)[nH]1	-14%
COC(=O)C(C)Sc1nnc2n(-c3cccc(C)c3)c(=O)c3c4c(sc3n12)CCCC4 (stereo unspecified)	-9%
(next part)
SMILES	HPGD block
CC(C(=O)Nc1sc2c(c1C#N)CCCCC2)N1C(=O)c2ccccc2C1=O (stereo unspecified)	-22%
Cn1nnnc1SCC1=C(C(=O)O)N2C(=O)[C@@H](NC(=O)[C@H](O)c3ccccc3)[C@H]2SC1	-16%
CCOC(=O)c1cc(OCC(=O)NC(C)C(C)C)cc(C(=O)OCC)c1 (stereo unspecified)	-9%
C=C(C)C(=O)C1CCCCC1	-10%
CCOc1ccc2[nH]c(=O)c(CN(CCO)C(=O)c3ccc(F)cc3)cc2c1	?
NC(=O)CSc1nnc(-c2ccc(S(=O)(=O)N3CCCCC3)cc2)n1-c1ccccc1	-26%
CC1(C)C(=O)C(c2ccccc2)=C2CN3C(=O)N(CCc4ccccc4)C(=O)C3(Cc3ccccc3)C=C21 (stereo unspecified)	-17%
Cc1cccc(N/C(N)=N/c2nc(C(F)(F)F)cc(=O)[nH]2)c1C	-15%
COc1ccc(C(=O)NNC(=S)NC(=O)c2cc(-c3ccccc3)nc3ccccc23)cc1	-8%
C=CCn1c(N2CCCC2)nc2c1c(=O)[nH]c(=O)n2C	-12%
O=C(C1CCN(S(=O)(=O)c2ccc(-n3cnnn3)cc2)CC1)N1CCN(c2ccccc2)CC1	-9%
COc1ccc(C(CC(=O)Nc2cc(OC)cc(OC)c2)n2cccc2)cc1 (stereo unspecified)	-10%
COC(=O)c1c(NC(=O)c2cccnc2)sc(C)c1C	-9%
Cc1nc2c(C(=O)N3CCOCC3)cnn2c(C)c1Cc1ccc(Cl)cc1	?
Cc1csc2nc(=O)c3ccccc3n12	?
CC1CN=C(c2cccn2Cc2ccc(F)cc2Cl)O1 (stereo unspecified)	-11%
CCN1CCCC1Cn1cnc2c([nH]c3cc(OC)ccc32)c1=O (stereo unspecified)	-13%
Cc1cccnc1NC(=O)c1ccc2nc(N)sc2c1	?
CCCn1c(C)nc2c(N(CCN(CC)CC)CCN(CC)CC)nc(C)nc21	-1%
COc1ccc(N2C(=O)C3CCCN3C2c2cccs2)cc1 (stereo unspecified)	-7%

Reformatted with the structure last: 17 of the compounds above
HPGD block	Compound
-22%	CC(C(=O)Nc1sc2c(c1C#N)CCCCC2)N1C(=O)c2ccccc2C1=O (stereo unspecified)
-16%	Cn1nnnc1SCC1=C(C(=O)O)N2C(=O)[C@@H](NC(=O)[C@H](O)c3ccccc3)[C@H]2SC1
-9%	CCOC(=O)c1cc(OCC(=O)NC(C)C(C)C)cc(C(=O)OCC)c1 (stereo unspecified)
-10%	C=C(C)C(=O)C1CCCCC1
?	CCOc1ccc2[nH]c(=O)c(CN(CCO)C(=O)c3ccc(F)cc3)cc2c1
-26%	NC(=O)CSc1nnc(-c2ccc(S(=O)(=O)N3CCCCC3)cc2)n1-c1ccccc1
-17%	CC1(C)C(=O)C(c2ccccc2)=C2CN3C(=O)N(CCc4ccccc4)C(=O)C3(Cc3ccccc3)C=C21 (stereo unspecified)
-15%	Cc1cccc(N/C(N)=N/c2nc(C(F)(F)F)cc(=O)[nH]2)c1C
-8%	COc1ccc(C(=O)NNC(=S)NC(=O)c2cc(-c3ccccc3)nc3ccccc23)cc1
-12%	C=CCn1c(N2CCCC2)nc2c1c(=O)[nH]c(=O)n2C
-9%	O=C(C1CCN(S(=O)(=O)c2ccc(-n3cnnn3)cc2)CC1)N1CCN(c2ccccc2)CC1
-10%	COc1ccc(C(CC(=O)Nc2cc(OC)cc(OC)c2)n2cccc2)cc1 (stereo unspecified)
-9%	COC(=O)c1c(NC(=O)c2cccnc2)sc(C)c1C
?	Cc1nc2c(C(=O)N3CCOCC3)cnn2c(C)c1Cc1ccc(Cl)cc1
?	Cc1csc2nc(=O)c3ccccc3n12
-11%	CC1CN=C(c2cccn2Cc2ccc(F)cc2Cl)O1 (stereo unspecified)
-13%	CCN1CCCC1Cn1cnc2c([nH]c3cc(OC)ccc32)c1=O (stereo unspecified)

The list goes on:
SMILES	HPGD block
CCOC(=O)CN(C(=O)CSc1nnc(COc2ccc(OC)cc2)n1C)c1ccccc1	-9%
CN(C)[C@H]1C(=O)C(C(=O)NCN2CCCC2)=C(O)[C@]2(O)C(=O)C3=C(O)c4c(O)cccc4[C@](C)(O)[C@H]3C[C@H]12	-19%
C=CCn1c(-c2ccc(OC)cc2)nc2nc3ccccc3nc21	?
CCCCCN1C2=NCCN2c2ccccc21	-5%
CCN(CC)S(=O)(=O)c1ccc2nnn(OCC(=O)Nc3cccc(C#N)c3)c2c1	-7%
CCOC(=O)CSc1nnc(CNC(=O)c2ccc(OC)cc2)n1-c1ccc(OC)cc1	-1%
C=Cc1c(C)/c2[n-]/c1=C\c1[n-]c(c(CC)c1C)/C=c1\[n-]c3c(c1C)C(=O)C(C(=O)[O-])C=3c1[n-]c(c(C)c1CCC(=O)[O-])\C=2.[Cu].[Na+].[Na+] (stereo unspecified)	25µM*
Cn1nc(C(F)(F)F)c2cc(NC(=O)OCc3ccc(C(C)(C)C)cc3)sc21	-18%
CCOC(=O)C(C)Oc1ccsc1C(=O)OC (stereo unspecified)	11%
O=C(CNS(=O)(=O)c1ccc(C(=O)N2CCCCC2)cc1)N1CCCCC1	?
O=C(c1ccccc1)N1CCN=C1c1ccccc1	-9%
CCOc1cc(NC(=S)Nc2ccccc2)c(OCC)cc1NC(=O)c1ccc(OC)cc1	-19%
CC(C)CCN(C)C1CCN(S(=O)(=O)c2cccc(C(F)(F)F)c2)CC1	?
COC(=O)[C@@]1(Cc2ccc(F)cc2)[C@H]2c3cc(C(=O)N4CCCC4)n(Cc4ccccn4)c3C[C@H]2CN1C(=O)c1ccccc1	-8%
N#CC1=C(N)c2ccccc2CC12CCCCC2	?
CCC(=O)Nc1ccc(C(=O)OCc2ccc(Cl)c(Cl)c2)cc1	-7%
CCc1ccc(NC(=O)Cn2c(=O)oc3cc(S(=O)(=O)N4CCOCC4)ccc32)cc1	-6%
CCc1nc2ccccc2n(CC)c1=O	?
Cc1ccc(OCCNC(=O)c2cc(-n3cnnc3)ccc2Cl)cc1C	-7%
COc1ccc(C(O)c2coc3ccc(O)c(CN(C)C)c23)cc1 (stereo unspecified)	1%
CCOc1ncccc1C(=O)OCC(=O)c1cccs1	-1%
COc1cc(/C=C2/S/C(=N/S(=O)(=O)c3ccccc3)NC2=O)c([N+](=O)[O-])cc1OC	5µM*
COC(=O)CS	-6%
O=c1oc(-c2ccccc2F)nc2c1cnn2-c1ccccc1	-27%
Cc1onc(-c2c(F)cccc2Cl)c1C(=O)N1CCc2ccccc21	-16%
COc1ccc([N+](=O)[O-])cc1/C=N/NC(=O)CNC(=O)c1cccc(F)c1	25µM*
CCOC(=O)c1ccc(NC(=O)CCC(CC)C(=O)O)cc1 (stereo unspecified)	-10%
COc1ccccc1-c1c(C)nn2c(N3CCCCCC3)cc(C)nc12	-19%
CCCn1c(O)c(/C=C2\C=NN=C2c2ccccc2)sc1=S	-14%
CC(=O)Nc1sc(N/N=C\c2ccccc2)nc1-c1cccs1	-29%
CC(=O)Nc1ccc(S(=O)(=O)Nc2ccc(S(=O)(=O)N3CCCCCC3)cc2)cc1	-17%
COc1ccc(C(CNC(=O)c2ccc(N3CCCC3=O)cc2)N(C)C)cc1 (stereo unspecified)	-12%
O=C(CNC(=O)c1ccccc1)NCC1COc2ccccc2O1 (stereo unspecified)	-4%
C=CCn1c(SCc2nc3ccccc3c(=O)[nH]2)nnc1-c1cc2cc(Cl)ccc2o1	?
Cc1ccc(S(=O)(=O)CC(=O)Nc2nc(-c3ccccc3)cs2)cc1	-15%
Cc1cc(C)c(-c2csc(Cc3nc(-c4cc5ccccc5oc4=O)cs3)n2)cc1C	?
COc1ccc(NC(=O)c2ccc(COc3ccccc3Br)o2)cc1OC	-20%
COc1ccc(-c2nc(CS(=O)CC(=O)NCc3ccc4c(c3)OCO4)c(C)o2)cc1 (stereo unspecified)	-28%
COC(=O)N1CCC2(CC1)CN(C(=O)Nc1cccc(F)c1)C2	-12%
Cc1ccsc1C(=O)OCC(=O)NCCC1=CCCCC1	?
Cc1ccc2cc(C#N)c(NCCNC(=O)C3CCC3)nc2c1C	?

Screening results (PubChem BioAssay)
